Screens (PubChem)
PrP 5UTR inh = inhibition of PrP 5' UTR reporter expression; cell-based PrP 5' UTR mRNA reporter, plate reader; inhibition, % (test concentration not listed); actives 0.35% (n = 340,000); AID 488862, 2010;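 active = every replicate at 50% or more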;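 also: 0 = median of the neutral control wells; tested in H4 reporter cells; numbers are from one replicate; inactives centre near -14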
Autofluor counter = counter-screen for toxin protease inhibitors: compound fluorescence. compound autofluorescence counterscreen, microsphere flow cytometry; hits give high values. fluorescence intensity (test concentration not listed). actives 3.1% (n = 360,000). AID 624483;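 active = at least 3 SD above the mean of all compounds, about 16000 in these data; inconclusive = too few beads counted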;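 also: 100 nL of 1 mM stock went into each well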
Mtb hypoxia inh = PubChem AID 1159583; M. tuberculosis hypoxia-regulated fluorescent reporter, fluorescence; fluorescence inhibition, % (test concentration not listed); actives 0.1% (n = 300,000);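 active = 35 to 45% if threefold the growth effect, above 45% if 1.5-fold the growth effect; inactive = the rest, general growth blockers included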;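 also: wells of about 50 µL received 100 nL stock; 0% = vehicle wells and 100% = reference inhibitor wells; whole bacteria with a GFP reporter of the hypoxia response; strong numbers were not always called active; many hits fall short of the cut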
BJeLR lethal = MLPCN primary cell-based screen for lethality selective to Ras in HRASV12 cells; BJeLR (HRASV12) viability, CellTiter-Glo ATP luminescence, 48 h; reference of the scale not given here; inhibition, % (no concentration beside the values); actives 0.17% (n = 300,000);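 active = replicate mean above 50%; inconclusive = above 50% but judged a plate artefact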;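 also: 50 nL library stock added to about 25 µL; numbers are from one replicate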
Sa ugtP lethal = growth inhibition of ugtP-null S. aureus, primary screen, RN4220 ugtP deletion, OD600; 16 h; some inactives read as strong as hits; growth inhibition, % (test concentration not listed); AID 1259309, 2017; actives 0.54% (n = 330,000);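 active = z-score under -3 and OD600 up to 0.15 on both plates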;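 also: plate controls were untreated wells for no effect and antibiotic for full effect; wells of about 80 µL received 100 nL stock; the first replicate is given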
Sa RN4220 lethal = growth inhibition of S. aureus RN4220, primary screen, OD600 | inhibition, % (concentration not given with the values) | AID 1259311, 2017 | actives 0.33% (n = 330,000) | 16 h;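 active = z-score of -3 or lower and OD600 up to 0.18 on both plates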;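 also: plate controls were untreated cells for no effect and reference antibiotic for full effect; stock transfer was 100 nL into about 80 µL; one replicate is shown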
Mtb hypoxia inh growth = further read-out of Mtb hypoxia inh, marked with its call; growth inhibition, %; measured here: M. tuberculosis growth (absorbance);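 0% = vehicle and 100% = reference antibiotic; read after six days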
* marks the source's active call; other numbers are inactive results; ? = inconclusive; . = no result given; & = joins results of further samples.

Below each SMILES: PrP 5UTR inh, Autofluor counter, Mtb hypoxia inh, Mtb hypoxia inh growth, BJeLR lethal, Sa ugtP lethal, Sa RN4220 lethal
- CC(=O)Nc1cccc(NC(=O)CSc2nc3c(=O)n(C)c(=O)n(C)c3n2C)c1
→ -4, 5879, 10, -4, -1, 0, 2.3
- CC(Cn1nnc([N+](=O)[O-])n1)=NNC(=O)c1ccc(Cl)c(Cl)c1
→ ., ., 1, -7, ., 45, 16
- CCc1cccc2c(C(=O)C(F)(F)F)cn(CC(=O)NCC3CCCO3)c12 (stereo not given)
→ -4, 2259, -4, 2, 4, 6, -1.1
- COc1cc(C)nc(NS(=O)(=O)c2ccccc2)n1
→ -19, 2433, ., ., -4, -2, 1.4
- CCCCn1c(=O)[nH]c(=O)c2c1nc(-c1ccc(OCC)cc1)n2CC
→ -6, 3068, 5, 1, -11, 17, 2.0
- COCCCNC(=O)C1CCCN(C(=O)Nc2ccc(OC)cc2)C1 (stereo not given)
→ -25, ?, -3, 4, 5, 3, 1.8
- Cc1ccccc1NC(=O)CSc1nnc(NC(=O)C2CC2)s1
→ 6, 3058, 17, 0, -6, 4, 2.9
- C=CCSc1nnc(Cc2c(C)[nH]c3ccccc23)o1
→ -25, 4868, 7, 0, 10, 5, 3.0
- COc1ccc(N2CCN(C(=O)Cn3cnc4c(cnn4-c4ccc(C)cc4)c3=O)CC2)cc1
→ -14, 4734, 10, -2, 10, 6, 2.1
- Cc1csc(=Nc2ccc(S(=O)(=O)N3CCOCC3)cc2)n1Cc1ccco1
→ -22&-9, 3744&3412, 14&4, 10&7, 2, 2&2, 13&3.8
- C/C(=N\Nc1nc(N2CCCCC2)nc(N2CCOCC2)n1)c1cccs1
→ -8, 2215, ., ., 4, ., .
- COc1cc(O)c(CCO)c2c1C(=O)C[C@@H](C)O2
→ -21, 5297, ., ., 7, 9, 1.9
- CN(C)CC#Cc1cncc(C(=O)NNC(=O)Nc2ccc(Cl)cc2)c1
→ -17, 5977, 15, 8, 5, 11, 3.2
- Cc1nn(-c2ccccc2)c(C)c1C=NNC(=O)CSc1nnc(SCc2cccc3ccccc23)s1
→ ., ., 4, 5, ., -23, 5.4
- CC(=O)Nc1ccc(NC(=O)c2c(-c3ccccc3Cl)noc2C)cc1
→ -24, 4007, 16, 7, -1, 3, 3.1

Later entries:
Below each SMILES: PrP 5UTR inh, Autofluor counter, Mtb hypoxia inh, Mtb hypoxia inh growth, BJeLR lethal, Sa ugtP lethal, Sa RN4220 lethal
- FC(F)(F)c1cc(-c2ccccc2)nc(NCC2CCCO2)n1 (stereo not given)
→ -3, 4068, 12, 13, -3, -20, 1.9
- O=C(COC(=O)CCN1C(=O)C2CC=CCC2C1=O)Nc1ccc([N+](=O)[O-])cc1 (stereo not given)
→ 13, 3716, 2, 10, ., 1, 2.5
- CCn1c(SCC(=O)OC)nnc1-c1ccncc1
→ -8, 4772, ., ., 8, 4, -4.8
- COc1ccc(CC(=O)Nc2cccc(-c3nnc(-c4ccco4)o3)c2)cc1
→ -9, 4138, 0, 12, 21, -8, 7.0
- COc1ccc(S(=O)(=O)N(C)C)cc1NC(=O)CCNC(=O)c1ccccc1OC
→ -30, 3919, 8, 9, -5, 10, 5.4
- O/N=C/c1cc(Br)cs1
→ -28, 3328, ., ., 5, ., .
- COc1ccc(OCC(=O)c2c[nH]c3ccccc23)cc1
→ -33, 4821, -2, 26, -1, 12, 1.7
- COC(=O)c1ccccc1NC(=O)NC1CCCC1
→ -11, 2246, 15, 14, 5, -3, 3.9
- CCOc1ccc(OCC(=O)OCc2cc(=O)n3cc(Br)ccc3n2)cc1
→ 4, 4136, 25, 8, ., 3, 1.8
- Cc1[nH]c2ccc(C(=O)NCCCN3CCCCC3)cc2c1C
→ 0, 6226, -3, 8, 5, -1, -0.9
- OC1CCN(c2c3c(nc4cc(-c5cccc(F)c5)nn24)CCCC3)CC1
→ -20, 9586, 4, 2, -10, -1, 6.1
- COc1nc(N2CCCC2)nc(-n2nnc(C(C)=O)c2C)n1
→ -15, 4490, 2, -1, -7, 5, 6.6
- CC(=O)OC1N=C(c2ccccc2Cl)c2cc(Br)ccc2NC1=O (stereo not given)
→ -14, 6582, 10, 14, 0, -5, 1.2
- Cc1cccc(-n2ncc3c2CCCC3NC(=O)Cc2c(C)noc2C)c1C (stereo not given)
→ -10, 6139, -6, -6, 12, 3, 1.8
- CCOC(=O)N1CCN(c2cc(N3CCN(CC)CC3)c(F)cc2[N+](=O)[O-])CC1C (stereo not given)
→ -2, 18259*, 6, 6, 0, -6, 2.8

Record cards, from the list above. Screens in order: PrP 5UTR inh, Autofluor counter, Mtb hypoxia inh, Mtb hypoxia inh growth, BJeLR lethal, Sa ugtP lethal, Sa RN4220 lethal
`FC(F)(F)c1cc(-c2ccccc2)nc(NCC2CCCO2)n1` (stereo not given) is listed with -3, 4068, 12, 13, -3, -20, 1.9
`CCn1c(SCC(=O)OC)nnc1-c1ccncc1` is listed with -8, 4772, ., ., 8, 4, -4.8
`CC(Cn1nnc([N+](=O)[O-])n1)=NNC(=O)c1ccc(Cl)c(Cl)c1` is listed with ., ., 1, -7, ., 45, 16
`CCc1cccc2c(C(=O)C(F)(F)F)cn(CC(=O)NCC3CCCO3)c12` (stereo not given) is listed with -4, 2259, -4, 2, 4, 6, -1.1
`COCCCNC(=O)C1CCCN(C(=O)Nc2ccc(OC)cc2)C1` (stereo not given) is listed with -25, ?, -3, 4, 5, 3, 1.8

Returning to the listing, repeating the 6 entries before the break.
Below each SMILES: PrP 5UTR inh, Autofluor counter, Mtb hypoxia inh, Mtb hypoxia inh growth, BJeLR lethal, Sa ugtP lethal, Sa RN4220 lethal
- Cc1[nH]c2ccc(C(=O)NCCCN3CCCCC3)cc2c1C
→ 0, 6226, -3, 8, 5, -1, -0.9
- OC1CCN(c2c3c(nc4cc(-c5cccc(F)c5)nn24)CCCC3)CC1
→ -20, 9586, 4, 2, -10, -1, 6.1
- COc1nc(N2CCCC2)nc(-n2nnc(C(C)=O)c2C)n1
→ -15, 4490, 2, -1, -7, 5, 6.6
- CC(=O)OC1N=C(c2ccccc2Cl)c2cc(Br)ccc2NC1=O (stereo not given)
→ -14, 6582, 10, 14, 0, -5, 1.2
- Cc1cccc(-n2ncc3c2CCCC3NC(=O)Cc2c(C)noc2C)c1C (stereo not given)
→ -10, 6139, -6, -6, 12, 3, 1.8
- CCOC(=O)N1CCN(c2cc(N3CCN(CC)CC3)c(F)cc2[N+](=O)[O-])CC1C (stereo not given)
→ -2, 18259*, 6, 6, 0, -6, 2.8
- CCn1c(=O)cc(SCC(=O)Nc2cccnc2)c2ccccc21
→ -15, 11318, 6, 6, 2, -5, 5.2
- O=[N+]([O-])c1cccc(C=Nc2cc3c(cc2Br)OCCO3)c1
→ -28, 1940, 2, -2, ., 6, 4.2
- CCN(c1cc(C)cc(C)c1)S(=O)(=O)c1nnc(NC(=O)C(C)(C)C)s1
→ -13, 5396, -15, 2, -5, -11, 12
- Cc1nn(-c2ccccc2)c2c1C(=O)NC(=O)C(C)(C)C2
→ 7, 2085, ., ., -3, -1, 3.0
- COc1ccccc1Nc1nc(-c2ccc([N+](=O)[O-])cc2)nc2ccccc12
→ -22, 2384, ., ., 1, -9, -3.5
- CC(C)(C)OC(=O)NCc1ccc(NC(=O)c2nc[nH]c2C(=O)NC(Cc2ccccc2)C(=O)OC(C)(C)C)cc1 (stereo not given)
→ ., ., -13, -3, ., 2, 2.5
- NC(=S)c1cc2ccc(O)cc2oc1=O
→ -8, 3190, ., ., 2, ., .
- Cn1cc(Cl)c(C(=O)NC2CCCCCC2)n1
→ -29, 6433, 2, 2, 3, 11, 5.7
- COc1cccc2sc3cc(C#Cc4ccccn4)ccc3c(=O)c12
→ -33, 2961, 6, 13, ., 7, 7.3
- Cc1cc(NC(=O)CCC(=O)N(Cc2ccco2)C2(C(=O)NC3CCCC3)CCC(C)CC2)no1 (stereo not given)
→ 0, 5780, -14, 3, -2, 4, 0.4
- Cc1cc(C)c2nc(SCCC#N)nc(C)c2c1
→ 3, 3953, ., ., 1, 2, 3.6
- COc1ccc(N2CCN(c3nc(Cl)nc(Nc4ccc(F)cc4)n3)CC2)cc1
→ -5, 2166, 3, 4, -4, -17, -4.0
- Cc1ccccc1C(=O)N1CCC(C(=O)N(CC(C)C)c2c(N)n(CC(C)C)c(=O)[nH]c2=O)CC1
→ -10, 9966, 0, 0, ., 3, 1.1
- CCC(C)NC(=O)c1ccc(C(=O)c2ccccc2)cc1 (stereo not given)
→ -27, 4411, 7, 5, -1, -3, 8.3
- CCn1c(COc2ccccc2)nc2ccccc21
→ -34, 2884, 13, 5, -3, 3, 1.8

Following part
Below each SMILES: PrP 5UTR inh, Autofluor counter, Mtb hypoxia inh, Mtb hypoxia inh growth, BJeLR lethal, Sa ugtP lethal, Sa RN4220 lethal
- CCc1nn2c(=O)c(S(=O)(=O)Nc3cccc(F)c3)c(C)nc2s1
→ -15, 5570, 7, 3, 5, -1, 0.6
- C[C@@]12C(=O)N(Cc3ccc(-c4ccccc4)cc3)CC(=O)N1[C@H](/C=C/c1ccccc1)[C@@H]1C(=O)N(c3ccccc3)C(=O)[C@@H]12
→ -1, 3681, ., ., -3, ., .
- COc1ccccc1N1CCN(C(c2ccccn2)c2nnnn2C2CCCCC2)CC1 (stereo not given)
→ -10, 2448, ., ., -6, 8, 9.1
- O=C1CCC[C@@H]2CC(N3CCCCC3)C[C@@H]3CCN1[C@H]23 (stereo not given in full)
→ -37, 3405, 9, 8, ., 0, 1.0
- Cc1ccc(C(=O)OCC(=O)Nc2ncc(Cl)cc2Cl)cc1NC(=O)c1ccco1
→ -45, 10662, 2, 3, -13, -17, 1.8
- C=CCNC(=O)C1CCN(S(=O)(=O)c2ccc(Br)cc2)CC1
→ -15, 2854, 8, 1, -5, 4, 3.7
- O=C1CC2(CCN(S(=O)(=O)c3ccccc3F)CC2)Oc2ccccc21
→ 1, ?, -2, -4, -4, 7, 4.6
- CCN(CC)S(=O)(=O)c1cccc(NC(=O)CNc2cccc(S(=O)(=O)N3CCCC3)c2)c1
→ -6, 4632, 6, 2, 6, 8, 5.1
- CC1CCc2c(C(=O)Nc3ccc(OC(F)(F)F)cc3)csc2C1 (stereo not given)
→ -18, 2594, 9, 10, -13, -18, 2.0
- COc1ccc(C(=O)C2=NN(C(C)=O)CC2c2ccco2)cc1 (stereo not given)
→ -14, 3897, 7, 9, 6, -1, 1.7
- NC(=O)/C(=N\OC(=O)c1ccco1)c1nc(-c2ccc(Br)cc2)cs1
→ -13, 11376, ., ., -15, ., .
- Cc1ccc(NC(=O)c2ccccc2OCc2ccc([N+](=O)[O-])cc2)nc1
→ -16, 3556, 9, 25, -4, 2, 0.6
- COc1cc(OC)cc(-c2c(-c3cccs3)c3cc(-c4ccc(OC)nc4)ccc3n2C)c1
→ -2, 3340, 7, 8, ., -27, -5.5
- CCC(=O)N(C1=C(NC)C(=O)c2ccccc2C1=O)C(C)C
→ -29, 2348, -10, -3, 21, -6, 13
- CCc1c(C)nc(SC/C=C/c2ccccc2)[nH]c1=O
→ -3, 6391, 4, -2, -5, 7, 1.8

(continued)
Below each SMILES: PrP 5UTR inh, Autofluor counter, Mtb hypoxia inh, Mtb hypoxia inh growth, BJeLR lethal, Sa ugtP lethal, Sa RN4220 lethal
- CCOc1cccc(C2NCc3ccccc3-n3cccc32)c1O (stereo not given)
→ -15, 3449, ., ., -4, -1, 9.9
- CC(=O)N1CCc2ccc(S(=O)(=O)Nc3ccccc3Cl)cc21
→ -20, 3296, 12, 7, 4, -2, 11
- COC(=O)C1=C(C)N(Cc2cccnc2)C(=O)/C1=C\c1cccs1
→ ., ., 0, 14, -8, 4, 7.3
- CCCOc1ccc(N2C(=O)CC(N3CCC(c4nc5ccccc5o4)CC3)C2=O)cc1 (stereo not given)
→ ., ., 13, 0, 1, 14, 14
- O=C1CC[C@@H](C(=O)N2CSC[C@H]2C(=O)O)N1
→ -20, 5408, ., ., 5, ., .
- COc1ccc(CC(=O)Nc2c3c(nn2-c2cccc(C)c2C)CS(=O)(=O)C3)cc1
→ -16, 22126*, -8, -6, 5, 3, 1.5
- Cc1csc(NC(C)c2nc3cc(Cl)c(N4CCCCC4)cc3n2CCOCCO)n1 (stereo not given)
→ 3, 4066, 5, 16, 1, 6, 1.7
- CC(C)c1ccc(C=NNC(=O)CC(=O)NC2CCCCC2)cc1
→ ., ., 9, 2, ., 8, 6.3
- COC(=O)c1ccc(COc2cccc3c2CCN(Cc2cccc(C)c2)C3=O)o1
→ -1, 2064, -8, 4, 3, -3, -5.0
